Source: PubChem BioAssay
PrP UTR inh = suppresses PrP 5' UTR mRNA reporter expression; inhibition, % (test concentration not listed); hit rate 0.35% among 340,000; cell-based PrP 5' UTR mRNA reporter, plate reader;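 active means every replicate at 50% or more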;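 further: 0 = median of the neutral control wells; tested in H4 reporter cells; numbers are from one replicate; inactives centre near -14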
Sa ugtP lethal = growth inhibition of S. aureus ugtP deletion strain; S. aureus RN4220 ugtP deletion, OD600 growth, 16 h; some inactives read as strong as hits; growth inhibition, % (no concentration beside the values); hit rate 0.54% among 330,000;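 active means z-score under -3 and OD600 up to 0.15 on both plates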;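 further: plate controls were untreated wells for no effect and antibiotic for full effect; wells of about 80 µL received 100 nL stock; the first replicate is given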
BJeLR viability = BJeLR cell viability loss | hit rate 0.17% among 300,000 | inhibition, % (concentration not given with the values) | BJeLR (HRASV12) viability, CellTiter-Glo ATP luminescence, 48 h; reference of the scale not given here;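 active means replicate mean above 50%; inconclusive means above 50% but judged a plate artefact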;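 further: 50 nL library stock added to about 25 µL; numbers are from one replicate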
Mtb hypoxia rep = reduces hypoxia-regulated biosensor signal in M. tuberculosis | M. tuberculosis hypoxia-regulated fluorescent reporter, fluorescence | fluorescence inhibition, % (no concentration beside the values) | hit rate 0.1% among 300,000 | AID 1159583;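 active means 35 to 45% if threefold the growth effect, above 45% if 1.5-fold the growth effect; inactive means the rest, general growth blockers included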;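 further: wells of about 50 µL received 100 nL stock; 0% = vehicle wells and 100% = reference inhibitor wells; whole bacteria with a GFP reporter of the hypoxia response; strong numbers were not always called active; many hits fall short of the cut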
Sa RN4220 lethal = kills Staphylococcus aureus RN4220. S. aureus RN4220 growth, OD600, 16 h. inhibition, % (no concentration beside the values). hit rate 0.33% among 330,000;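 active means z-score of -3 or lower and OD600 up to 0.18 on both plates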;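 further: plate controls were untreated cells for no effect and reference antibiotic for full effect; stock transfer was 100 nL into about 80 µL; one replicate is shown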
Bead autofluor = compound fluorescence in toxin protease inhibitor counterscreen; compound autofluorescence counterscreen, microsphere flow cytometry; active compounds read high; hit rate 3.1% among 360,000; fluorescence intensity (test concentration not listed);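 active means at least 3 SD above the mean of all compounds, about 16000 in these data; inconclusive means too few beads counted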;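 further: 100 nL of 1 mM stock went into each well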
Mtb hypoxia rep growth = second read-out of Mtb hypoxia rep, no call of its own (marks repeat the call); growth inhibition, %; measured here: M. tuberculosis growth (absorbance);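 0% = vehicle and 100% = reference antibiotic; read after six days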
Active calls of the source: *; ? = inconclusive; nt = no result given.

SMILES	PrP UTR inh	Sa ugtP lethal	BJeLR viability	Mtb hypoxia rep	Mtb hypoxia rep growth	Sa RN4220 lethal	Bead autofluor
COC(=O)CSc1nnc(COc2cccc3ccccc23)o1	-28	-6	4	-2	17	-0.3	3690
O=C(Nc1ccccc1F)c1ccccc1C(=O)Nc1ccccc1F	nt	6	-11	-6	4	2.9	3491
O=C(NC1=NCCS1)c1cc(-c2ccc(F)cc2)nc2ccccc12	-18	-4	1	9	1	-5.4	2835
CS(=O)(=O)Nc1ccc(C(=O)Nc2ccc(S(=O)(=O)N3CCCCC3)cc2)cc1	-6	1	2	13	3	0.8	?
CCc1ccnc(NS(=O)(=O)c2ccc3c(c2)CCO3)c1	nt	5	-1	7	9	3.2	4993
COc1cccc(CNC(=O)CN(C)S(=O)(=O)c2cnc[nH]2)c1	9	5	0	13	6	5.9	3968
O=C(O)c1ccccc1-c1ccccc1C(=O)Nc1ccccc1-c1ccccc1	-20	1	-6	7	6	5.1	3892
O=C(CSc1nnc(-c2cccnc2)n1Cc1ccco1)N1c2ccccc2Sc2ccccc21	-20	-4	nt	-12	3	-2.2	10303
O=C(Nc1ncc2c(n1)CC(c1ccco1)CC2=O)c1ccco1 (stereo unspecified)	-9	1	1	-1	0	0.8	2844
CC(=NNC(=O)C(O)c1ccccc1)c1ccc(Cl)cc1 (stereo unspecified)	nt	3	nt	-3	5	3.6	nt
O=C(NCc1ccco1)c1ccc(CNc2c(N3CCCCC3)c(=O)c2=O)cc1	-35	16	-13	11	1	1.9	5620
Cc1ccccc1N1CCN(C(=O)CN2C(=O)c3ccccc3C2=O)CC1	-55	4	-9	7	18	0.0	5349
CC(C)NC(=O)Nc1cccc2c1O[C@H](CN(C)C(=O)NC(C)C)[C@@H](C)CN([C@H](C)CO)C2=O	-26	2	nt	-5	5	2.8	3541
CCCc1cc(C(=O)Cc2nc3ccccc3s2)c(O)cc1O	-15	1	2	6	6	15	2396
N=c1ccn(Cc2cccc(Cl)c2)cc1	-9	4	15	nt	nt	5.3	3546
CN1CCN(c2nc(NCc3ccco3)nc(N)c2[N+](=O)[O-])CC1	3	-11	-5	15	8	0.0	4299
CCOc1ccc(N(CC(=O)NC(C)CC)S(C)(=O)=O)cc1 (stereo unspecified)	-18	-5	-9	-8	2	-1.6	8745
Cc1cc(C)nc(SCc2nnc(SCc3ccc([N+](=O)[O-])cc3)n2Cc2ccco2)n1	-24	-1	-9	nt	nt	5.5	2509
Cc1cc(C)cc(-n2c(SCC(=O)NCc3ccc4c(c3)OCO4)nc3ccccc3c2=O)c1	-38	4	-3	4	4	0.9	2426
c1ccc(Cn2nnc3c(Nc4ccc5c(c4)OCO5)nc(C4CC4)nc32)cc1	-20	-26	11	3	6	7.2	?
CCn1c(SCc2ccc(C)cc2)nnc1-c1cnccn1	-17	-1	nt	8	0	8.5	nt
O=C(O)c1cnn(-c2ccccc2)c1-c1ccccc1	-12	-3	6	nt	nt	-3.7	4779
CC(C)(C)c1nnc(NC(=S)Nc2ccccc2)s1	-49	-5	3	nt	nt	3.2	4163
COc1ccc(CNC(=O)CN2C(=O)CC(c3ccccc3)=Nc3ccccc32)cc1	-66	5	4	2	8	-0.2	3881
Cc1noc(C)c1CSc1nnc(-c2cc(Cl)ccc2Cl)n1N	-22	4	-1	5	5	-0.3	10362
COc1cccc(-c2nc3cc(C)ccc3o2)c1	-33	13	-4	-69	-13	5.3	4518
CC(C)c1ccc(O)c(C(=O)c2cnn(-c3ccccc3)c2)c1	-24	17	2	-1	2	5.7	3371
Cc1ccc(F)c(CNC(=O)C2CCC(=O)N(CCCN3CCCC3=O)C2)c1F (stereo unspecified)	-16	15	-2	15	7	4.6	5642
CCOc1ccnc2c1c(=O)n(Cc1cc(OC)cc(OC)c1)c(=O)n2C	-14	12	2	2	-4	4.1	6019
CC(=O)Nc1ccc(S(=O)(=O)NCCCc2ccccc2)cc1	-11	-1	-8	0	0	-5.4	3897
Cc1ccccc1-n1c(-c2ccoc2)nc2ccccc2c1=O	-31	5	0	1	1	2.4	4241
CCN(CC)C(=O)c1[nH]cnc1C(=O)NCc1ccccc1	-6	4	nt	20	6	6.0	2858
Cc1ccc(NC(=S)NN=Cc2c(C)nn(-c3ccccc3)c2N2CCCC2)cc1	nt	9	nt	-5	3	12	nt
O=[N+]([O-])c1ccc(C=Nn2c(C3CCCCC3)n[nH]c2=S)cc1	nt	-12	nt	1	3	2.6	nt
O=C1c2ccccc2C(=O)N1CNc1ccccc1	-12	-9	-9	11	11	4.3	8699
COc1ccc(-c2sc(C(=O)c3ccc(Cl)cc3Cl)cc2CC(=O)O)cc1	-36	2	-11	16	7	5.8	4212
Cc1cccc(NC(=O)c2cnc3sccn3c2=O)n1	-58	1	11	5	5	1.9	4352
CC(C(=O)O)c1ccc(CC2CCCC2=O)cc1 (stereo unspecified)	4	3	-2	-3	2	12	5820
Cc1nn(CC(=O)OCC(=O)NCCc2ccc(F)cc2)c(C)c1[N+](=O)[O-]	4	1	nt	1	6	2.0	3793
OCC1(CCc2ccccc2)CCN(C/C=C/c2ccccc2)CC1	-24	-3	-7	6	-6	-6.0	3937
CCN(CC)CCN(C(=O)CCOc1ccccc1)c1nc2c(F)cc(F)cc2s1	-6	13	8	4	1	1.3	6183
Cc1ccc(NC2=NCC(=O)N2Cc2ccc3c(c2)OCO3)c(C)c1	-5	11	0	nt	nt	-1.0	4551
COc1ccc(CCC(=O)Nc2ccc(S(=O)(=O)N3CCOCC3)cc2)cc1	-12	7	3	-9	6	0.9	3689
O=C(Nc1nnc(C2=COCCO2)o1)c1ccc([N+](=O)[O-])s1	-18	11	4	10	12	7.2	5228
Cc1ccc(C(=O)Nc2cc(C(F)(F)F)ccc2N2CCCCC2)cc1[N+](=O)[O-]	-2	4	2	14	1	1.9	3237

Another view of part of the listing above:
| smiles | PrP UTR inh | Sa ugtP lethal | BJeLR viability | Mtb hypoxia rep | Mtb hypoxia rep growth | Sa RN4220 lethal | Bead autofluor |
| --- | --- | --- | --- | --- | --- | --- | --- |
| Cc1cc(C)nc(SCc2nnc(SCc3ccc([N+](=O)[O-])cc3)n2Cc2ccco2)n1 | -24 | -1 | -9 | nt | nt | 5.5 | 2509 |
| O=C1c2ccccc2C(=O)N1CNc1ccccc1 | -12 | -9 | -9 | 11 | 11 | 4.3 | 8699 |
| Cc1ccc(NC(=S)NN=Cc2c(C)nn(-c3ccccc3)c2N2CCCC2)cc1 | nt | 9 | nt | -5 | 3 | 12 | nt |

Part of the list above, with two lines to a compound.
Value order: PrP UTR inh	Sa ugtP lethal	BJeLR viability	Mtb hypoxia rep	Mtb hypoxia rep growth	Sa RN4220 lethal	Bead autofluor
> O=[N+]([O-])c1ccc(C=Nn2c(C3CCCCC3)n[nH]c2=S)cc1
    nt	-12	nt	1	3	2.6	nt
> O=C1c2ccccc2C(=O)N1CNc1ccccc1
    -12	-9	-9	11	11	4.3	8699
> COc1ccc(-c2sc(C(=O)c3ccc(Cl)cc3Cl)cc2CC(=O)O)cc1
    -36	2	-11	16	7	5.8	4212
> Cc1cccc(NC(=O)c2cnc3sccn3c2=O)n1
    -58	1	11	5	5	1.9	4352

(next part)
SMILES	PrP UTR inh	Sa ugtP lethal	BJeLR viability	Mtb hypoxia rep	Mtb hypoxia rep growth	Sa RN4220 lethal	Bead autofluor
O=C(NC(N1CCCC1)C(Cl)(Cl)Cl)c1ccccc1 (stereo unspecified)	-9	-9	-3	7	5	4.5	4136
COc1cc(CO)c(OC)c([N+](=O)[O-])c1	-13	-3	-2	2	8	0.2	4087
CCOC(=O)Cn1c(=O)oc2cc(S(=O)(=O)N3CCC(N4CCCCC4)CC3)ccc21	-14	7	-1	9	2	2.2	6247
Clc1ccc(C2=NCCN2)cc1	-8	4	9	4	2	4.3	2316
COC(=O)C1=CN(Cc2ccc(OC)cc2)C=C(C(=O)OC)C1c1cc(OC)c(OC)c(OC)c1	-14	-3	1	5	-3	-1.0	3899
CC(=O)NC1=NN(C(C)=O)C(C)(c2cccnc2)S1 (stereo unspecified)	-9	3	-11	-5	11	6.2	3186
O=C(NCc1ccco1)C1CCN(C(=O)c2ccc(Cl)cc2)CC1	-24	-1	nt	7	1	6.0	8671
CC(=O)N(C(C)=O)c1cccc2c(N(C(C)=O)C(C)=O)cccc12	-32	2	4	6	18	3.0	9684
CNc1nn(-c2cccc(Cl)c2)nc1N	-43	-3	-2	nt	nt	-3.7	2744
Clc1cccc(Cl)c1NC1=NCCC1	-17	10	-10	2	3	7.3	3081
CC(C)Oc1ccc(C(=O)Nc2ccc(Cl)c(S(=O)(=O)Nc3ccc(Cl)cc3)c2)cc1	-4	-48	-8	-8	0	-5.0	2561
COc1ccc2c(c1C)CCC(C)(C#N)C2=O (stereo unspecified)	-9	3	nt	13	14	3.7	3177
CC(C)COC(=O)c1nnsc1NC(=O)Nc1ccccc1	-12	-13	1	0	5	1.9	8086
COc1ccc2cc(CCN3C(=O)c4ccccc4C3=O)c(=O)[nH]c2c1	-23	-4	-6	-2	-4	1.2	4374
O=C(COc1ccc(Cl)cc1)NN=CCCc1ccccc1	nt	6	nt	2	4	2.8	nt
CCOC(=O)c1ccc[n+]([O-])c1	-19	-1	nt	20	13	-2.3	3870
COc1cc(NC2c3ncccc3C(=O)N2Cc2ccco2)cc(OC)c1 (stereo unspecified)	5	4	3	4	-8	1.7	20554*
COC(=O)c1cccc(Oc2nc3c(c(=O)n(C)c(=O)n3C)n2Cc2ccc(C)cc2)c1	-21	-10	1	-7	-4	-1.5	4231
O=C(COC(=O)C1CC2CCCC(C1)C2=O)c1cccc(Br)c1 (stereo unspecified)	-19	9	nt	4	-7	3.3	8873
CC(C)(C)NC(=O)CN1C(=O)NC(c2ccccc2)(c2ccccc2)C1=O	-10	-4	1	-10	3	0.6	3971
CCOC(=O)Cc1csc(SCC(=O)NC2CCCC2)n1	-17	3	nt	-4	8	0.0	4236
CC(/C=C/c1ccc2c(c1)OCO2)=NNC(=O)c1ccc(C)nc1	nt	-3	nt	5	8	4.6	nt
O=C(Nc1ccccc1F)NC1CCCc2ccccc21 (stereo unspecified)	10	1	-7	2	-2	-0.3	3632
CCN1C(=O)C2C(c3ccc(-c4ccccc4)cc3)N[C@@](C)(C(=O)OC)C2C1=O (stereo partly specified)	nt	-2	nt	7	7	6.1	nt
CCCCCCCN=C(C)c1ccccc1O	-8	-4	-10	14	3	4.0	4337
CCOC(=O)c1c(C)oc2ccc(OC(=O)c3cccs3)cc12	-9	16	-11	8	8	5.8	2772
COc1ccc(OC)c2c(=O)cc(C(=O)O)[nH]c12	nt	2	-6	-3	-4	-0.2	nt
CC(=O)c1ccc2c(c1)Nc1ccccc1S2	-12	-5	5	nt	nt	2.4	2760
COc1ccc2c(c1)c(C(=O)N/N=C/c1ccccc1Cl)c(C)n2C	-19	nt	-8	nt	nt	nt	4047
CCn1nc(NC(=O)Cc2ccc(OC)cc2)c2cc3cc(C)ccc3nc21	-28	7	-2	0	-1	5.4	3835
Cc1cc(/C=C2/NC(=O)NC2=O)c(C)n1-c1ccccn1	-5	14	-2	3	10	4.9	2050
COc1ccccc1N1CCN(C2CCN(C3CCC(c4ccccc4)CC3)CC2)CC1 (stereo unspecified)	nt	1	-2	7	2	6.4	nt
COc1ccc(C2C(=C(O)c3ccc4c(c3)CC(C)O4)C(=O)C(=O)N2CCN2CCOCC2)cc1 (stereo unspecified)	nt	-2	nt	4	10	2.3	nt
CN1CCN(c2ccc(NC(=O)Cc3ccccc3)cc2)CC1	-71	9	-9	nt	nt	4.9	3516
O=C(NNC(=O)c1cccc(S(=O)(=O)N2CCCCC2)c1)c1ccccc1	-9	5	nt	3	1	2.9	5383
O=C(C[n+]1cc(-c2ccc(F)cc2)n2c1CCC2)Nc1nc(-c2ccccc2)cs1	-30	0	-3	3	0	-9.7	2261
Cc1ccc(CN(C(=O)c2cccs2)C2CCS(=O)(=O)C2)cc1 (stereo unspecified)	-7	3	10	5	14	1.0	6002
CCC(C)NC(=O)CSc1nnc(-c2cc(OC)c(OC)c(OC)c2)c(-c2cc(OC)c(OC)c(OC)c2)n1 (stereo unspecified)	5	5	2	-12	6	1.1	3787
Fc1ccc(N2CCN(C(=S)NCc3ccco3)CC2)cc1	-29	-2	-6	1	13	-0.8	3987
COC(=O)C=CC(=O)Nc1cccnc1	nt	1	nt	15	6	5.7	nt
Cc1ccccc1Cn1nc(C)c(NC(=O)c2cc(-c3ccco3)on2)c1C	8	13	6	4	-7	3.6	6105
CN(C)S(=O)(=O)N1CCc2ccc(NC(=O)C3CCCO3)cc2C1 (stereo unspecified)	-17	1	-13	7	0	-2.2	4636
